# MbtI inh = MbtI salicylate synthase inhibitors, primary screen, biochemical, fluorescence intensity | P9WFX0 | purified MbtI enzyme, fluorescence intensity read-out | inhibition, %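 (about 17 µg/mL by stock and volumes)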 | 0.89% of 100,000 active | AID 493033, 2011;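 active = above 50% in both replicates, above 80% if mildly self-fluorescent; inactive = the rest, strongly fluorescent compounds included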;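 also: 0% = mean of negative and 100% = mean of positive controls; one replicate is shown; some compounds called inactive have numbers as strong as hits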
# PV pol inh = poliovirus RdRp elongation inhibitors, primary screen, biochemical, fluorescence polarization, total intensity; % elongation, % (compound at 16.7 µg/mL); AID 588519, 2011; 0.66% of 150,000 active; poliovirus polymerase elongation; active compounds read low; in the data active = % elongation below about 90%; also: some results filed as inactive read as strong as hits
# Target sequence (P03300 1749-2209 limits assumed): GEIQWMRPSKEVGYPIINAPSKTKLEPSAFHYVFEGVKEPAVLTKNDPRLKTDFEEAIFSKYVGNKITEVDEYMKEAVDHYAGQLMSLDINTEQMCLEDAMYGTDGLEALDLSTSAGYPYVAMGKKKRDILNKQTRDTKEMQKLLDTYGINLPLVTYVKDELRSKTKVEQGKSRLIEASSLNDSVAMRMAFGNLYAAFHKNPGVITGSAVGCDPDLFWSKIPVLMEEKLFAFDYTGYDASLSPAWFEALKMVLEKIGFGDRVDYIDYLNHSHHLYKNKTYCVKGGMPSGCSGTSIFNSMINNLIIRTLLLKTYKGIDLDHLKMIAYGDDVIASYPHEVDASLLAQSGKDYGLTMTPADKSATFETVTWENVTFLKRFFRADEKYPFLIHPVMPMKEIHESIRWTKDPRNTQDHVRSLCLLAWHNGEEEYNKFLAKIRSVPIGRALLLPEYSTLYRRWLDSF
# Mtb MenB inh = M. tuberculosis MenB inhibitors, primary screen, biochemical, absorbance | MenB enzyme assay, absorbance read-out; some hits fall short of the stated cut | inhibition, %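 (about 12 µg/mL by stock and volumes)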 | 0.43% of 100,000 active | AID 540299, 2011;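 active = mean of two replicates above 30%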;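 also: 0% = no compound and 100% = wells with inactive enzyme; the first replicate is given; strong numbers were not always called active; inactives centre near -10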
# Target sequence (P9WNP5 whole entry, looked up): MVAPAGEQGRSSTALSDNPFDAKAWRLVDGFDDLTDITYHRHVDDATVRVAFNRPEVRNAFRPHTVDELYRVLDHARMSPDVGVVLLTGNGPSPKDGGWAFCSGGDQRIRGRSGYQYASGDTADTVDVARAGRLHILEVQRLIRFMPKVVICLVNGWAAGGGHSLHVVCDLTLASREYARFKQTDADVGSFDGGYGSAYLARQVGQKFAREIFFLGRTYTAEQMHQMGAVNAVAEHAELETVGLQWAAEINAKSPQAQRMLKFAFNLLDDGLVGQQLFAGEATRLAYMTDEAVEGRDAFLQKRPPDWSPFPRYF
# PV pol inh intensity = also measured in PV pol inh; calls as there; % elongation; measured here: total intensity read-out; formula for this scale not given here;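 total fluorescence in place of polarization; lower means less elongation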
# * hit, by the source's call; i = inactive; / = not tested or not shown.
SMILES,MbtI inh,PV pol inh,PV pol inh intensity,Mtb MenB inh
COc1cc2c(cc1NC(=O)c1cccnc1)oc1ccccc12,16,102,103,-29
COc1ccccc1NCC(=O)c1ccc(Cl)cc1,-2,103,107,/
O=C(COC(=O)C1C2CC3OC(=O)C1C3C2)Nc1ccccc1 (configuration not stated),-2,102,104,-24
O=C(c1ccc(F)cc1)C1CCN(C(=O)C2CC2)CC1,7,100,101,1
COC(CNC(=O)/C=C1\Sc2ccccc2N(Cc2ccccc2F)C1=O)OC,-2,101,98,-38
CC(NC(=O)C(O)(c1ccccc1)c1ccccc1)C(=O)O (configuration not stated),0,106,105,5
CC1=CS(=O)(=O)CC1Sc1nc2ccccc2[nH]1 (configuration not stated),0,101,103,1
CCCN1CCC2(CC1)C(C#N)=C(S)NC(=O)C2C#N (configuration not stated),/,102,102,-15
CC(Nc1ccc(Br)cc1)C(=O)NC1CCCC1 (configuration not stated),7,105,100,5
COC(=O)CCn1nc(-c2ccc(Cl)cc2)c2ccccc2c1=O,0,100,103,12
C=CCN1C(=O)C(=O)/C(=C(\O)c2ccccc2)C1c1ccccc1Cl (configuration not stated),/,102,105,-8
Cc1c(NC(=O)CC2(CC(=O)N3CCOCC3)CCCC2)c(=O)n(-c2ccccc2)n1C,-6,103,107,-20
CCOc1cc(C(=O)CCC(=O)N(C)Cc2cccnc2)ccc1O,-1,107,105,5
COC(=O)CN(c1ccccn1)S(=O)(=O)c1ccccc1,90,101,102,-22
Cc1nnc(N2CCCC(C(=O)NCCN3CCOCC3)C2)c2nn(-c3ccc(Cl)cc3)c(C)c12 (configuration not stated),-12,100,102,14
CSc1cccc(NC(=O)CSc2nc3ccccc3[nH]2)c1,-14,104,105,-28
C[C@@H]1CC2C3CCC4=CC(=O)C=C[C@]4(C)[C@@]3(F)[C@@H](O)C[C@]2(C)[C@@]1(O)C(=O)COP(=O)(O)O (some centres not stated),-9,101,102,10
COc1cc2sc(=NC(=O)c3cccc(OC)c3OC)n(C)c2cc1OC,-3,98,98,12
O=C(N/N=C1\CCc2ccccc21)c1cccs1,-10,99,103,5
Cc1nc(SC(C)C(=O)Nc2c(C)n(C)n(-c3ccccc3)c2=O)nc(C)c1C (configuration not stated),-8,106,113,-10
CCN(C(=O)c1cccc(S(=O)(=O)N2CCCCC2)c1)C1CCS(=O)(=O)C1 (configuration not stated),-10,106,96,-25
CC1(C)[C@@H](OC(=O)CCC(=O)O)CC[C@]2(C)[C@H]3C(=O)C=C4[C@@H]5C[C@@](C)(C(=O)O)CC[C@]5(C)CC[C@@]4(C)[C@]3(C)CC[C@@H]12,9,101,102,1
CCN(CC)CC(=O)Oc1ccc(NC2=NS(=O)(=O)c3ccccc32)cc1,7,102,100,-31
CCOc1ccc(CC#N)cc1OCC,10,101,105,/
Cc1cccn2c(=O)c(C=NCc3ccccc3)c(NCc3ccco3)nc12,-6,106,101,-15
O=c1[nH]cnc2sccc12,4,115,132,5
OC(c1cccnc1)c1cccs1 (configuration not stated),/,104,116,4
NC(=O)c1ccc[n+](CC(=O)N2CCOCC2)c1,-2,101,104,6
COc1cccc(-c2nn(-c3cc(C(F)(F)F)ccn3)c(=O)o2)c1,7,100,103,5
C=CCn1c(NC(C)=O)c(C#N)c2nc3ccccc3nc21,39,108,123,/
CCC(=O)Nc1ccc2c(C)cc(C)nc2n1,/,105,105,-2
COCc1cc(C)nc(SCC(=O)Nc2nnc(C(F)(F)F)s2)c1C#N,7,103,101,26
Cc1cc(C(=O)COC(=O)C2CC2)c(C)n1-c1ccc(F)cc1,-7,103,105,-22
CC1(C)CC(=O)C2=C(C1)NC(=O)NC2c1c(O)ccc2ccccc12 (configuration not stated),-12,107,113,2
CN(Cc1ccccc1)C(=O)c1ccccc1NC(=O)C1CC1,-11,99,102,2
Cc1ccc(NC(=O)c2ccc(CSc3ncnc4nc[nH]c34)cc2)cc1,-10,101,103,-3
COc1ccc(CCNC(=O)NC2CC(=O)N(c3ccc4c(c3)OCCO4)C2)cc1OC (configuration not stated),-8,101,99,-21
O=C(CSc1nnc(-c2ccc(S(=O)(=O)N3CCCC3)cc2)n1CC1CCCO1)NC1CC1 (configuration not stated),14,101,101,-17
NC(=O)c1cc2c(ccc3ccccc32)oc1=O,i,101,102,-28
COc1ccccc1C1CCN(C(=O)c2cccs2)CC1,-2,107,105,-26
Brc1ccc2c(c1)C=CC2,/,105,106,-13
CCn1cc(C(=O)N2CCCC2)c(=O)c2cc(S(=O)(=O)N(C)C)ccc21,-2,102,107,-3
CCOC(=O)c1cc(-c2ccccc2)n(-c2ccc(C(=O)NCc3ccco3)cc2)c1C,9,100,101,-23
C=CCSc1nnc(N)s1,0,99,101,-29
COc1ccc(-c2ocnc2C(=O)Nc2ccc(F)cc2F)cc1,12,102,103,11

# 3 compounds from above, showing only PV pol inh intensity, PV pol inh and MbtI inh:
Molecule | PV pol inh intensity | PV pol inh | MbtI inh
COCc1cc(C)nc(SCC(=O)Nc2nnc(C(F)(F)F)s2)c1C#N | 101 | 103 | 7
COc1ccc(-c2ocnc2C(=O)Nc2ccc(F)cc2F)cc1 | 103 | 102 | 12
Brc1ccc2c(c1)C=CC2 | 106 | 105 | /

# Three entries from above, with values under each structure.
# The line under a structure holds: MbtI inh	PV pol inh	PV pol inh intensity	Mtb MenB inh
CSc1cccc(NC(=O)CSc2nc3ccccc3[nH]2)c1
    -14	104	105	-28
CCOc1cc(C(=O)CCC(=O)N(C)Cc2cccnc2)ccc1O
    -1	107	105	5
Brc1ccc2c(c1)C=CC2
    /	105	106	-13

# More structures.
SMILES,MbtI inh,PV pol inh,PV pol inh intensity,Mtb MenB inh
Cc1ccc(S(=O)(=O)N(CCO)Cc2ccccc2)cc1,-12,100,103,2
COc1ccc(-c2nn(-c3ccccc3)cc2/C=C\C(=O)N(C)C)cc1,-4,106,104,/
COC(=O)CSc1nn(-c2ccc(F)cc2)c(=S)s1,12,101,98,10
Cc1cc(N2CCCC2)ccc1/C=C(/C#N)c1ccc(F)cc1,/,110,115,-45
CSc1sc(C(=O)NN)cc1-c1nc(C)cs1,-1,107,109,2
c1ccc(CCn2c(COc3ccccc3)nc3ccccc32)cc1,/,103,102,-34
CC(C)CCNC(=O)c1cccn2c(=O)c3c4c(sc3nc12)CCCC4,-2,102,106,-14
CC1(C)Oc2ccc3ccc(=O)oc3c2C/C1=N/NC(N)=O,127,101,96,7
CCSc1nsc(NC(=O)Nc2cccc(OC)c2)n1,11,102,105,17
COc1ccc(C2NCCO2)cc1OC (configuration not stated),16,101,102,-17
CC12CCC(C(=O)NC3CCCCC3)(CC1=O)C2(C)C (configuration not stated),-20,102,104,-20
c1ccc(-c2nnc(-c3ccccc3)c3nonc23)cc1,-7,100,105,-13
O=C(/C=C/c1c(Cl)nc2sccn12)NCC1CCCO1 (configuration not stated),28,99,100,3
COC(=O)c1cc2c(ccn2-c2ccc(F)cc2)n1C(C)C,90,102,101,-39
CCN1C(=O)/C(=C\c2ccsc2)SC1=S,-3,103,102,-21
CC1(C)CC(O)CC(C)(C)N1CC(O)COC1CCCCC1 (configuration not stated),-11,/,/,-12
CC1CN(CC(=O)c2cccs2)CC(C)O1 (configuration not stated),i,103,112,-12
COc1cc(/C=N/n2cnc3c(sc(=S)n3C)c2=O)ccc1O,-6,107,112,-12
O=C(CN1C(=O)CCC1=O)NC(c1ccccc1)c1ccccc1,3,/,/,4
COc1cc(CNc2ccc3c(c2)OCCO3)ccc1OCC(N)=O,/,102,101,-2
COc1ccc(/C=C2\CC/C(=C\c3ccc(C)cc3)C2=O)cc1,3,100,103,-3
CC(C)(C#N)Nn1cnnc1,-6,102,104,-21
COc1ccc(C(=O)/C=C/Nc2ccccn2)c(OC)c1,-5,97,102,-105
Cn1cc(Br)c(NC(=O)/C=C\C(=O)O)n1,14,102,102,12
O=C(N/N=C1\CCS(=O)(=O)c2ccc(F)cc21)c1ccc(O)cc1,4,101,109,3
COc1ccc(-c2nc(=S)n(CN3CCOCC3)[nH]2)cc1,/,100,102,-12
CCC(Sc1nc2ncccc2c(=O)n1Cc1ccccc1)C(=O)NCc1ccc(C)cc1 (configuration not stated),-2,102,108,-12
CC(=O)N(c1ccccc1)c1nc(CSc2nnc(Cc3cccs3)n2C)cs1,-21,103,106,3
COc1ccc2cc(C3SC(C)C(=O)N3C3CCCO3)c(Cl)nc2c1 (configuration not stated),/,98,233,-10
COc1cc(OC)cc(C(=O)N(C)CCc2ccc(OC)c(OC)c2)c1,-1,106,110,-27

# Single records, as listed above. Screens in order: MbtI inh | PV pol inh | PV pol inh intensity | Mtb MenB inh
# COc1ccc2cc(C3SC(C)C(=O)N3C3CCCO3)c(Cl)nc2c1 (configuration not stated) is listed as / | 98 | 233 | -10
# CC1CN(CC(=O)c2cccs2)CC(C)O1 (configuration not stated) is listed as i | 103 | 112 | -12
# O=C(N/N=C1\CCS(=O)(=O)c2ccc(F)cc21)c1ccc(O)cc1 is listed as 4 | 101 | 109 | 3
# COc1ccc(C(=O)/C=C/Nc2ccccn2)c(OC)c1 is listed as -5 | 97 | 102 | -105

# Next records
SMILES,MbtI inh,PV pol inh,PV pol inh intensity,Mtb MenB inh
Cc1ccc(N2C(=O)C3Sc4[nH]c(=O)sc4C(c4ccccc4)C3C2=O)cc1 (configuration not stated),17,100,104,-15
Fc1ccc(-c2cc(C(F)(F)F)nc(-n3cccn3)n2)cc1,-6,104,105,-32
COc1cc(CO)ccc1OCC(=O)NC(C)(C)C,-10,101,100,-21
CC1CC1C(=O)OCc1cc(=O)n2cc(Br)ccc2n1 (configuration not stated),-39,98,102,14
Clc1ccc(CN2CCN(/N=C/C3=C(N4CCOCC4)C(=C\c4ccccc4)/CC3)CC2)cc1,6,101,99,-1
COc1ccccc1CN(C)C(C)C(=O)NCC1CCCCC1 (configuration not stated),-1,105,108,-4
CC(CCN1CCCN(C)CC1)c1ccccc1 (configuration not stated),-19,101,104,1
CCOc1ccc(N2CSC(=S)N(c3ccc(OCC)cc3)C2)cc1,-14,103,108,3
O=c1[nH]c2ccc(NCc3ccccn3)cc2[nH]1,96,101,103,-10
COC(=O)c1cc(NC(=O)c2cccc3c2C(=O)N(Cc2cccnc2)C3)cc(C(=O)OC)c1,0,102,109,-4
C=C(C)Cn1cnc(-c2ccccc2)c1-c1ccccc1,-22,109,107,-25
NC(=S)N/N=C1\CCOc2ccc(Cl)cc21,31,104,106,-25
O=C(O)CSc1nnc(Cn2c(=O)sc3ccccc32)n1-c1cccc(C(F)(F)F)c1,2,100,108,-15
Cc1ccc(C)c(NCCOc2ccccc2)c1,-11,102,106,/
O=C(CC1CCCC1)OCC(=O)c1ccc(Cl)cc1,-12,101,96,/
CCOC(=O)c1cccc(NC(=O)c2cccc3c2C(=O)N(C2CCN(C(=O)OCC)CC2)C3)c1,-3,99,102,-7
O=C(c1cc2cc(Br)ccc2oc1=O)N1CCCc2ccccc21,-6,101,102,-1
CN(Cc1c(F)cccc1Cl)S(=O)(=O)c1cn(C)c(=O)n(C)c1=O,7,101,99,5
COc1cccc(NC(=S)NCc2cccn2C)c1,-6,100,101,11
CN(CCOc1ccc(Br)cc1)Cc1nnc(-c2ccc(F)cc2)o1,-5,101,106,-24
COc1ccc(-c2nc(C)c(CCNC(=O)C(C)(C)C)s2)cc1,99,100,99,-1
O=C(CN1CCC(c2nc3ccccc3o2)CC1)Nc1cc(F)ccc1F,-11,106,95,-16
O=C(/C=C/c1ccccc1)N1CCN(Cc2cccc(F)c2)CC1,4,100,98,-36
O=C(NC1CCCCCCC1)c1c[nH]c2ccc(S(=O)(=O)N3CCOCC3)cc2c1=O,i,101,102,-12
Nc1ccccc1N1CCCCC1,1,102,105,/
CCOC(=O)c1sc(SC#N)c(C(=O)OCC)c1C,50,103,102,-23
CCOc1ccccc1N(C)S(=O)(=O)c1ccc2[nH]c(=O)ccc2c1,0,104,105,-11
CCN1CCc2c(sc3[nH]c(=S)n(Cc4ccccc4)c(=O)c23)C1,51,110,155,-45
O=C(COc1ccc(Cl)cc1)NCC(c1ccco1)N1CCc2ccccc2C1 (configuration not stated),0,101,107,-17
CCCCNC(=O)C1CCN(S(=O)(=O)c2cccc3nsnc23)CC1,-7,104,101,-31
C(=C\C1Nc2ccccc2-c2nc3ccccc3n21)/c1ccccc1 (configuration not stated),109,98,105,-7
Cc1ccc(-c2nc(Nc3cccc(C(F)(F)F)c3)sc2CC(=O)O)cc1,-8,103,106,-4
CCOC(=O)c1cc2c(=O)n3ccccc3nc2n(C)c1=NC(=O)c1ccc(OC)cc1,118,98,104,-11
CS(=O)(=O)Nc1ccc2oc3ncccc3c(=O)c2c1,-8,99,103,-19
Cc1cc2cc(CN(CC3COCCO3)S(=O)(=O)c3ccc(F)cc3)c(=O)[nH]c2cc1C (configuration not stated),7,102,102,-84
COC(=O)c1scc2c(SCc3ccccc3)cc(C(F)(F)F)nc12,-38,103,98,-29
Nc1nc2nc(-c3cccs3)cc(C(F)(F)F)c2s1,-74,105,101,-26
O=C(NN1CC(=O)N(c2ccccc2-c2ccccc2)C1=O)c1ccncc1,2,100,102,5
Cc1ccc2c(COC(=O)c3ccc(Cl)nc3)cc(=O)oc2c1,2,98,103,-7
